AID504770: growth inhibitors of E. coli YBA685 in a screen for V. cholerae RctB (chromosome II replication) inhibitors. E. coli YBA685 rctB-dependent plasmid, OD600 growth, 3 h; stronger effect = lower value. z-score (test concentration not listed). 0.27% of 130,000 active;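 active = z-score under -2 on both plates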;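 note: wells of about 30 µL received 100 nL stock; score is relative to mean and SD of the test wells; the first replicate is given; strong numbers were not always called active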
Ba CapD inh: inhibitors of Bacillus anthracis CapD enzyme | purified CapD enzyme, fluorescence intensity read-out; stronger effect = lower value; some hits fall short of the stated cut | z-score (test concentration not listed) | 0.23% of 140,000 active;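 active = z-score under -4 in either of two replicates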;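 note: stock transfer was 100 nL into about 40 µL; score is relative to mean and spread of the plate; one replicate is shown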
Active calls of the source: *; / = no result given.

Below each SMILES: AID504770	Ba CapD inh
1. Cc1cccc(NC(=O)C2CC(=O)NC(Nc3nc4ccccc4s3)=N2)c1 (stereo not given)
    0.05	/
2. O=C(CSc1nc2ccccc2s1)NCCC12CC3CC(CC(C3)C1)C2
    0.1	0.065
3. CC1CN(CC(O)COCc2ccc(Cl)cc2)CCN1CC(O)COCc1ccc(Cl)cc1 (stereo not given)
    0.15	/
4. Cc1ccc(CNC(=O)Cn2cccc2)cc1
    -0.35	-0.47
5. Cc1nn(-c2ccccc2Cl)c2nc(-c3ccco3)cc(C(=O)NN)c12
    0.65	/
6. CCN1C(=O)CC(N2CCC(Nc3ccc(OC)cc3)CC2)C1=O (stereo not given)
    0.2	0.57
7. CCOC(=O)C1=C(C)NC2=C(C(=O)C(C(=O)OCC)C(c3cccc(OC)c3)C2)C1c1cccs1 (stereo not given)
    /	4.1
8. Cc1cc(C)n2nc(-c3ccc(C(C)(C)C)cc3)cc2n1
    0.7	14
9. CNS(=O)(=O)c1cc(C(=O)N2CCCCC2)ccc1OC
    1.2	-0.73
10. O=C(COC(=O)c1ccc(O)cc1)Nc1nccs1
    -0.3	/
11. C(=Nc1cccc2ccccc12)c1ccccc1
    2	92
12. CCCCC(=O)N1c2ccccc2NC2=C(C(=O)CC(C)(C)C2)C1c1ccc(OC)cc1OC (stereo not given)
    /	2.3
13. CCOC(=O)c1[nH]c(C)c(C(=O)OCC(=O)c2cc(C)n(-c3nccs3)c2C)c1C
    1.8	/
14. COc1ccccc1N1CCN(c2ncnc3sc(C(=O)Nc4ccc5c(c4)OCO5)c(C)c23)CC1
    /	-0.32
15. CCOC(=O)c1cc(S(=O)(=O)N(C)Cc2ccccc2)cn1C
    1.5	-0.065
16. Cc1ccc(S(=O)(=O)Nc2cccc3ccccc23)cc1
    -0.6	3.6
17. COc1cc2nc(N(C)CCCNC(=O)C3CCCO3)nc(N)c2cc1OC (stereo not given)
    1.5	0.99
18. Cc1nc2ccc(S(=O)(=O)NCC(=O)N(C)Cc3ccccc3)cc2s1
    2	0.06
19. CSc1nc2cc(Oc3ccc4ccccc4c3)c(Cl)cc2[nH]1
    1.8	0.74
20. O=C(Nc1ccc(F)cc1)C(Sc1nnc(C2CC2)o1)c1ccccc1 (stereo not given)
    -0.4	/
21. O=C(O)c1ccccc1SCc1cn2ccccc2n1
    0.1	/
22. Cc1cc(C(=O)CSc2nccc(-c3cccs3)n2)ccc1Cl
    -0.55	-0.91
23. COc1ccc(NC(=O)N2CCn3c2nc2ccccc23)cc1
    -0.65	0.43
24. Cc1c(CNC2CCCc3ccccc32)c(C(=O)O)c(C)n1Cc1c(F)cccc1Cl (stereo not given)
    -1.5	-0.52
25. CN(C)N1C(=O)c2ccccc2C1=O
    /	-0.01
26. Cc1ccc(NC(=O)C(C)OC(=O)C2CCN(c3ccc(C(F)(F)F)cn3)CC2)cc1 (stereo not given)
    -0.7	/
27. Cc1nc(C(F)(F)F)ccc1C(=O)NCc1ccccc1
    1.1	-0.8
28. O=C(O/N=C/c1ccc(Oc2ccc(F)cc2)c([N+](=O)[O-])c1)c1ccccc1
    /	0.46
29. Cc1cccc2c1-c1sc(C(=O)NC3CCCC(C)C3C)cc1CO2 (stereo not given)
    -0.25	0.08
30. Cc1sc2ncnc(SCC(=O)O)c2c1C
    -0.65	0.77
31. CCOc1ccc(C2=NN3C(C2)c2cc(Cl)ccc2OC3c2ccccc2Cl)cc1 (stereo not given)
    /	-0.53
32. CS(=O)(=O)N(CC(=O)NC1CC1)c1ccccc1
    -0.05	0.54
33. Cc1cc(C=C2C(=O)CC(C)(C)CC2=O)oc1C
    0.25	0.04
34. CN1C(=O)S/C(=C\c2cc(Cl)c(OCC(=O)O)c(Cl)c2)C1=O
    -0.05	0.27
35. Cc1c(Cl)cccc1NC(=O)CSC1=C(C#N)C2(CCCCC2)C(C#N)C(=O)N1 (stereo not given)
    /	0.34
36. CC(C)CCNC(=O)C1CCC(Cn2c(=O)[nH]c3ccccc3c2=O)CC1 (stereo not given)
    -2	81
37. COc1cc(C2C(C#N)=C(N)OC3=C2C(=O)CC(c2ccccc2)C3)cc(OC)c1OC (stereo not given)
    /	0.53
38. COc1cccc(CSc2nnc(-c3cc4occc4n3C)n2-c2ccccc2C)c1
    -0.15	1.4
39. CCCOC(=O)COc1ccc2c(=O)c(-c3ccc(OC)c(OC)c3)c(C(F)(F)F)oc2c1
    /	0.47
40. Nc1ccc(-c2cc(-c3cccc(N)c3)nc(-c3ccccc3)n2)cc1
    0.95	24
41. CCOC(=O)CSc1n[nH]c(=O)n1-c1ccccc1
    -0.55	-0.79
42. COc1ccccc1O[C@@H]1O[C@H](COC(C)=O)[C@@H](OC(C)=O)[C@H](OC(C)=O)[C@H]1OC(C)=O
    /	-0.045
43. O=C(O)CCCC=C(c1ccccc1)c1ccccc1
    0.5	0.23
44. Cc1ccc(OCC(O)CNCc2ccco2)cc1C (stereo not given)
    -0.7	-0.7
45. COc1cc(NS(=O)(=O)c2ccc(NC(=O)c3ccccc3)cc2)nc(OC)n1
    0.2	-0.47
46. CC(C)C(C)(C#N)Nc1ccccc1 (stereo not given)
    -1.9	-0.005
47. C/C(=N\NC(=O)O)c1ccc(Oc2ccccc2)cc1
    -0.15	-0.15
48. CCC(=O)Cc1c(C)[nH]c2ccc(OC)cc12
    /	-0.095
49. Nc1cc2cc([N+](=O)[O-])ccc2oc1=O
    /	-1.8
50. CC(Sc1cccc[n+]1[O-])C(=O)NC1CCCCC1C (stereo not given)
    0.35	/

Quoted at random: 2 compounds from above
Below each SMILES: AID504770	Ba CapD inh
45. COc1cc(NS(=O)(=O)c2ccc(NC(=O)c3ccccc3)cc2)nc(OC)n1
    0.2	-0.47
42. COc1ccccc1O[C@@H]1O[C@H](COC(C)=O)[C@@H](OC(C)=O)[C@H](OC(C)=O)[C@H]1OC(C)=O
    /	-0.045

Next part
Below each SMILES: AID504770	Ba CapD inh
51. FC(F)(F)c1cccc(-c2nnc(-c3ccncc3)o2)c1
    -0.05	1.6
52. c1csc(-c2noc(-c3ccno3)n2)c1
    0.15	0.14
53. CCOC(=O)c1ccccc1NC(=O)CSc1nc2c(oc3ccccc32)c(=O)n1C1CCCC1
    1.3	/
54. O=S(=O)(c1ccccc1Br)N1CCN(c2cnccn2)CC1
    /	61
55. O=C(CSc1nc(C(F)(F)F)nc2ccccc12)N1CCNC1=O
    1.1	/
56. COc1cc(-n2nnnc2-c2cccc(C(F)(F)F)c2)c(Cl)cc1Cl
    /	-0.21
57. C=CCn1c(C(O)c2ccccc2)n[nH]c1=S (stereo not given)
    -0.3	-0.13
58. CCOc1ccc(N2C(=O)CC(Sc3ncccc3C(=O)O)C2=O)cc1 (stereo not given)
    -0.85	/
59. CCSc1c(C(=O)Nc2ccc(Br)cc2)ccc2c1C(=O)c1ccccc1C2=O
    /	-0.74
60. O=C(O)c1ccc2c(c1)C1c3ccccc3CC1C(c1cccc(Cl)c1)N2 (stereo not given)
    -0.35	0.42
61. CC1CN(C(=O)c2ccccc2C(=O)c2ncc[nH]2)CC(C)O1 (stereo not given)
    -0.1	/
62. O=C1NC(=O)C2C1ON(c1ccccc1)C2c1ccccc1 (stereo not given)
    -0.55	-0.27
63. O=C(NC1CCCCC1)N1CCN(C2CCCCC2)CC1
    -0.7	-0.41
64. COc1ccc(Cn2c(SCC#N)nc3c(sc4ccccc43)c2=O)cc1
    2.7	0.58
65. CCCCNc1nc2ccccc2n1Cc1ccc(C#N)cc1
    -0.55	/
66. O=C1Nc2c(c3ccccc3oc2=O)Nc2ccccc21
    0.5	-0.01
67. CN(C)CCNC(=O)c1ccc(-n2c(-c3ccccc3)nc3cccnc32)cc1
    0.25	1.1
68. O=C(/C(=N\O)c1ccccc1)c1ccccc1
    /	-0.27
69. O=C(C(C(=O)N1CCCCC1)C12CC3CC(CC(C3)C1)C2)N1CCCCC1
    1.1	0.41
70. O=c1[nH][nH]c(=S)n1CC1CCCO1 (stereo not given)
    0.05	/
71. CCCn1nc(C(=O)O)ccc1=O
    -0.15	/
72. CCN(CC)S(=O)(=O)c1ccc(C(=O)Nc2nc3c(F)cc(F)cc3s2)cc1
    -0.4	-0.72
73. O=c1[nH]c(CSc2nnc(Cc3cccs3)n2C2CCCCC2)nc2ccsc12
    -0.2	/
74. Cc1cccc(-c2nc(CN3N=C(N4CCOc5ccc(Cl)cc54)CCC3=O)c(C)o2)c1
    -0.55	-0.6
75. Cc1ccc(NC(c2ccc(O)cc2)P(=O)(c2ccccc2)c2ccccc2)cc1 (stereo not given)
    -0.8	-0.2
76. COC(=O)CN1C(=O)C2(C(C#N)=C(N)Oc3n[nH]c(-c4ccc(Cl)cc4)c32)c2ccccc21 (stereo not given)
    /	0.73
77. CC(C)/C=N/NC(=O)c1ccccc1
    -0.3	/
78. Cc1ccc(SCc2nnc(-c3c(-c4ccccc4)noc3C)o2)cc1C
    -0.4	/
79. C/C(Nc1ccccc1)=C1\C(=O)C=C(c2ccco2)CC1c1ccco1 (stereo not given)
    0.2	-3.1
80. Cc1ccc(N2C(=O)N(CC(=O)Nc3ccccc3)c3ccccc3S2(=O)=O)cc1Cl
    -0.55	10

Grouped by structure, the entries above with a cyano group
Below each SMILES: AID504770	Ba CapD inh
35. Cc1c(Cl)cccc1NC(=O)CSC1=C(C#N)C2(CCCCC2)C(C#N)C(=O)N1 (stereo not given)
    /	0.34
37. COc1cc(C2C(C#N)=C(N)OC3=C2C(=O)CC(c2ccccc2)C3)cc(OC)c1OC (stereo not given)
    /	0.53
46. CC(C)C(C)(C#N)Nc1ccccc1 (stereo not given)
    -1.9	-0.005
64. COc1ccc(Cn2c(SCC#N)nc3c(sc4ccccc43)c2=O)cc1
    2.7	0.58
65. CCCCNc1nc2ccccc2n1Cc1ccc(C#N)cc1
    -0.55	/
76. COC(=O)CN1C(=O)C2(C(C#N)=C(N)Oc3n[nH]c(-c4ccc(Cl)cc4)c32)c2ccccc21 (stereo not given)
    /	0.73

Additional compounds:
Below each SMILES: AID504770	Ba CapD inh
81. Cc1[nH]ccc(=O)c1OC(C)C(N)=O (stereo not given)
    0.2	-0.05
82. N#CCc1ccc(NC(=O)C2CCCCC2)cc1
    -0.1	0.14
83. COc1ccc(NC(=O)CSc2nnc3[nH]c(=O)c(C)nn23)cc1Cl
    0.8	/
84. CCC1C/C(=C\c2sccc2C)C(=O)/C(=C/c2sccc2C)C1 (stereo not given)
    -2	-0.14
85. Cc1ncc(CO)c2cc(C(N)=S)c(=Nc3ccc(S(N)(=O)=O)cc3)oc12
    0.1	0.21
86. CCN1CCCCCC1CO (stereo not given)
    -0.7	0.26
87. O=C(COC(=O)C1CCC1)c1cc2ccccc2o1
    0	0.23
88. Nc1c(Br)cc(Br)cc1Br
    0	-0.005
89. NCC1(N2CCCCC2)CCCCC1
    -0.4	/
90. CCOC(=O)c1c(C)c(C(=O)N2CCCCC2)c(C)n1C
    -0.1	0.29
91. Cc1nc(Cc2nnc(SCCCn3c(=O)[nH]c4ccccc43)o2)cs1
    0	/
92. COC(=O)c1c(CC(C)C)csc1N
    0.2	/
93. CCN(CC)C(=O)c1sc2ccccc2c1Cl
    -1.1	0.12
94. CCSC1=C(C#N)C(c2ccccc2Cl)C(C#N)=C(N)N1 (stereo not given)
    -0.35	/
95. Cn1cnc2cc(NC(=O)c3cccs3)ccc21
    -0.6	/
96. CC1CCCCN1C(=O)Cn1c(=O)n(-c2ccccc2)c(=O)c2c3c(sc21)CCC3 (stereo not given)
    0.3	0.09
97. O=C(/C=C/C(=O)N1CCN(c2ccccc2F)CC1)N1CCN(c2ccccc2F)CC1
    -1.4	-0.18
98. CCN(CC)c1ccc2c(C)cc(=O)oc2c1
    0.1	-0.085
99. COc1ccc(OCC(O)CN2CCCCC2)cc1 (stereo not given)
    -0.45	0.29
100. CCS(=O)(=O)Cc1ccccc1
    -0.45	-0.28
101. COCCCn1c(-c2cccs2)nc2c(c(=O)c3ccccc3n2C)c1=O
    -0.75	/
102. CCOc1cc(CO)cc(Br)c1OCc1ccc(C(=O)O)cc1
    -0.1	2.1
103. N#Cc1c(Nc2ccccc2)sc(N)c1C(=O)c1ccccc1
    0.55	-0.26
104. O=C(CC(NCc1cccnc1)C(=O)O)Nc1ccccc1 (stereo not given)
    0.15	0.22
105. O=c1oc2ccc(O)cc2s1
    0.35	-0.44
106. CCc1ccc(Cc2cnc(NC(=O)C3=NCCN3)s2)cc1
    -2.1	/
107. O=C(CCn1nnc2ccccc21)OCC(=O)c1ccc(Cl)c(Cl)c1
    0.4	0.2
108. COc1cccc2c(=O)n(CC(=O)N3CCCCC3)ccc12
    0.55	7.5
109. C=CCOC(=O)C1=C(C)OC(N)=C(C#N)C1c1cccs1 (stereo not given)
    /	0.33
110. COc1cccc(-c2cc(C(=O)NC(C)C)no2)c1
    1.6	4.1
111. O=S(=O)(c1ccccc1)N(Cc1ccccc1)c1ccccn1
    -1	0.28
112. CCS(=O)(=O)C(=C1Nc2ccccc2N1)S(=O)(=O)CC
    -0.7	0.36
113. Cc1ccc(Nc2n[nH]c(=O)c3ccccc23)cc1C
    -0.65	1.1
114. COc1ccccc1CNC(=O)C(NS(=O)(=O)c1cccc2nsnc12)c1ccccc1 (stereo not given)
    -2	-0.31
115. CN(C)/N=N/c1nc[nH]c1C(N)=O
    /	1.2
116. COc1ccc(NC(=O)CSc2n[nH]c(N)n2)c(OC)c1
    /	0.45
117. Cc1sc2ncnc(NCc3cccnc3)c2c1C
    -0.55	0.83

Among those listed so far, 2 have a nitro group on carbon.
Below each SMILES: AID504770	Ba CapD inh
28. O=C(O/N=C/c1ccc(Oc2ccc(F)cc2)c([N+](=O)[O-])c1)c1ccccc1
    /	0.46
49. Nc1cc2cc([N+](=O)[O-])ccc2oc1=O
    /	-1.8

Assay outcomes from PubChem BioAssay.
